Source: PubChem BioAssay (several laboratories)
CBX7 AlphaScr: blocks human CBX7 binding to H3K27me3 peptide; normalised signal (fraction of DMSO) (test concentration not listed); AlphaScreen His6-CBX7 / biotin-H3K27me3 peptide binding; hits give low values; AID 1224903; 66,000 tested, 1.1% active; in the data active = normalised signal below about 0.5;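 also: 100 nL library stock added to about 20 µL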
Target sequence (O95931 whole entry, looked up): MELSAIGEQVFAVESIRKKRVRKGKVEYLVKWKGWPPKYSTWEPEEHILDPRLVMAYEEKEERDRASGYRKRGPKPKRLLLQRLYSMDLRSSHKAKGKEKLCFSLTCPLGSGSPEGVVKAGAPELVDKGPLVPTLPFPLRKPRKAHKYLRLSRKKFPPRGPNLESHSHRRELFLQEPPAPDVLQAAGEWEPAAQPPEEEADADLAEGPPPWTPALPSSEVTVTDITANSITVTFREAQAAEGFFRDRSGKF
CBX7 AlphaScr z-score: second read-out of CBX7 AlphaScr, no call of its own (marks repeat the call); z-score; measured here: z-score of CBX7 signal; some inactives read as strong as hits; reference of the scale not given here;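 same signal on another scale; lower means less binding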
The depositor's hits bear a star; & = joins results of further samples. The list is partial. The share of hits here may be higher or lower than overall.

mol	CBX7 AlphaScr	CBX7 AlphaScr z-score
CC1CCN(S(=O)(=O)c2ccc(C(=O)Nc3nnc(-c4cccs4)o3)cc2)CC1	0.85	-3.4
Brc1ccccc1OCc1nc2ccccc2[nH]1	1.2	3.8
Cc1cc2c(cc1C)C(c1cccc(C(F)(F)F)c1)CC(=O)N2 (configuration not stated)	1	0.058
O=C(CSc1nnnn1-c1ccc(Cl)cc1)Nc1ccccc1-c1ccccc1	0.99	-0.16
CC(C)(C)c1ccc(-c2nc3cc(NC(=O)c4ccc5c(c4)OCCO5)ccc3o2)cc1	1.1	1.4
O=C(NCc1cccs1)c1cnn2c(C(F)(F)F)cc(-c3cccs3)nc12	1	1.5
CCOc1ccc(-c2nnc(Nc3ccc(OC)c(C(N)=O)c3)c3ccccc23)cc1	0.96	-0.19
COc1ccc(NC(=O)c2cccc3c2C(=O)N(C2CCCCC2)C3)cc1OC	0.68	-2.6
CCN1CCN(CCCNC(=O)Cn2nc(Cc3cccnc3)c3ccccc3c2=O)CC1	1	-0.026
Cc1ccccc1Nc1c(-c2ccccn2)nc2c(C)cccn12	0.65	-2.8
CCOCCCNC(=O)C1CCN(c2nc3ccc(OCC)cc3s2)CC1	1	0.016
COc1ccccc1-c1nn2c(-c3ccccc3)nnc2s1	1	1.2
COc1ccccc1N1CCN(CC(O)COc2ccc(C(C)(C)C)cc2)CC1 (configuration not stated)	0.88	-2.7
N#Cc1nc(COc2ccc(F)cc2)oc1NCCN1CCOCC1	1	0.56
CCC1Oc2ccc(C)cc2N(CC(=O)NCc2ccccc2)C1=O (configuration not stated)	1.1	0.9
CCCCNC(=O)c1cc(-c2cccs2)on1	1	0.72
CCOC(=O)c1cnc2c(OC)cccc2c1Nc1ccc2c(c1)OCCO2	1	0.043
O=C1CC(N2CCN(c3ccccn3)CC2)C(=O)N1c1ccc(Cl)cc1 (configuration not stated)	0.82&1.1	-2.7&0.85
Cc1nccc2[nH]c(=O)c(C(=O)NC3CCCCC3)cc12	1	0.75
CCCCn1cc(C2CC(=O)N(c3ccc(C)cc3)C2=O)c2ccccc21 (configuration not stated)	1	0.97

Entries shown so far with a tert-butyl group, in the order listed:
mol	CBX7 AlphaScr	CBX7 AlphaScr z-score
CC(C)(C)c1ccc(-c2nc3cc(NC(=O)c4ccc5c(c4)OCCO5)ccc3o2)cc1	1.1	1.4
COc1ccccc1N1CCN(CC(O)COc2ccc(C(C)(C)C)cc2)CC1 (configuration not stated)	0.88	-2.7

Next section
mol	CBX7 AlphaScr	CBX7 AlphaScr z-score
O=C(CC1Nc2ccccc2NC1=O)Nc1cccc2ccccc12 (configuration not stated)	1	1.1
CCOC(=O)c1cc(-c2ccccc2)n(CCC(=O)NCCc2ccc(Cl)cc2)c1C	0.99	-0.14
COCCNC(=O)c1cc2sc(Cl)cc2n1C	1	1.6
COc1ccc(-c2nc(-c3cccnc3)no2)cc1	1.1	2.1
Cc1ccccc1-c1nc(C(=O)NCc2ccc(F)cc2)c(C)o1	1.1	0.57
Cc1cccc(C)c1-n1nnnc1C(c1ccc(Cl)cc1)N(C)Cc1ccccc1 (configuration not stated)	1	0.83
Cc1cccc(Nc2c(-c3ccc(N(C)C)cc3)nc3ncccn23)c1	0.89	-1.2
Clc1ccccc1-c1nc(NCc2cccnc2)c2ccccc2n1	0.86	-1.5
CCOCCCN1C(=O)CC1(C(=O)NC1CCCCC1)c1ccc(Cl)cc1 (configuration not stated)	1	0.72
CCOC(=O)CNc1c(Nc2cc(C)cc(C)c2)c(=O)c1=O	0.97	-0.77
Cc1cccc(N(Cc2nnc3n2CCCCC3)C(=O)Nc2ccccc2)c1	1.1	0.95
O=C(CCN1C(=O)COc2ccccc21)N1CCCCCC1	1.1	1.6
CC1(C)OC[C@H](NC(=O)c2ccc3ccccc3n2)[C@H](c2ccccc2)O1	1	-0.079
Cc1ccc(Nc2c(-c3ccsc3)nc3cc(C)ccn23)cc1	0.95	-2.6
COC(=O)c1cc2c(cc1NC(=O)c1cc3c(s1)-c1ccccc1OC3)OCO2	1.2	2.7
Cc1ccc(NC(=O)CSc2nc3c(c(=O)[nH]2)CCC3)cc1F	1	0.15
O=C(Cn1ncc2c1-c1ccccc1OC2)N1CCCc2ccccc21	0.86	-1.7
COc1ccc(N(CC(O)CN2C(=O)NC(C)(C)C2=O)S(=O)(=O)c2ccccc2)cc1 (configuration not stated)	0.92	-1.5
Cc1ccccc1OC1C(=O)N(CC2CCCO2)C1c1ccc2c(c1)OCO2 (configuration not stated)	1	0.25
CC(C)Oc1ccc(C(=O)Nc2c(C(=O)Nc3ccccc3F)oc3ccccc23)cc1	1.1	0.77
Cc1cccc(-c2nnc(SCC(=O)Nc3nc(-c4ccccc4)cs3)o2)c1	1.4	0.95
Nc1ccc(-c2nc3ccc(C(=O)c4ccccc4)cc3[nH]2)cc1	1	1
CC(C)c1ccc(NC(=O)C(c2ccccc2)N2CCC3(CC2)OCCO3)cc1 (configuration not stated)	0.92	-1.8
Cc1ccccc1OCc1nn2c(-c3ccccc3)nnc2s1	1.1	3.5
CCC(=O)Nc1nc(C)c(-c2csc(Nc3ncccn3)n2)s1	1.1	0.097
CCc1cccc(C)c1-n1nnnc1C(C)(C)Nc1cccc(C)c1	1	1.3
Cc1ccc(S(=O)(=O)CCc2nnc(NC(=O)c3ccc(C(C)(C)C)cc3)s2)cc1	0.94	-2.1
Cc1ccc(S(=O)(=O)Nc2ccc3c(c2)OCCOCCOCCOCCOCCO3)cc1	1	0.096
COc1ccc(Cl)cc1NC(=O)CCc1nc(-c2cccs2)no1	1.1	1.4
Cc1ccc(-c2csc(NC(=O)COc3c(C)ccc(C)c3C)n2)cc1	1.1	0.93
COc1ccc(-c2nc(CSCC(=O)NCCc3ccccc3)c(C)o2)cc1OC	0.96	-1.8
CCC(C)NC(=O)c1ccc2c(c1)N(Cc1ccccc1C)C(=O)CS2 (configuration not stated)	1.2	1.5
CCc1c(C)nc2cc(-c3ccc(OC)cc3)[nH]n2c1=O	0.99	-0.12
Cc1cc(S(=O)(=O)Nc2ccc3oc4c(c3c2)C(=O)CC(C)(C)C4)ccc1Cl	1.1	1.1
CCN(CC)CCNC(=O)CCc1nc(-c2ccc(C)cc2)no1	1.2	3.4
Cc1ccccc1C(=O)Nc1c(-c2cccs2)nc2ccccn12	1	1.1
COc1ccc(Cl)cc1NC(=O)c1sc2ncn(CC(=O)N3CCCCC3C)c(=O)c2c1C (configuration not stated)	0.96	-1.3
CCc1cccc(NC(=O)C2CCCN(S(=O)(=O)c3cccnc3)C2)c1 (configuration not stated)	1	0.043
Cc1nn(C)c(C)c1S(=O)(=O)N(CC(=O)NCC1CCCO1)c1ccc(C(C)C)cc1 (configuration not stated)	0.98	-0.33
COc1ccccc1-c1nnc(SCC(=O)Nc2nccs2)o1	0.94	-0.14

By substructure: the entries above with a CF3 group
mol	CBX7 AlphaScr	CBX7 AlphaScr z-score
Cc1cc2c(cc1C)C(c1cccc(C(F)(F)F)c1)CC(=O)N2 (configuration not stated)	1	0.058
O=C(NCc1cccs1)c1cnn2c(C(F)(F)F)cc(-c3cccs3)nc12	1	1.5

Later entries:
mol	CBX7 AlphaScr	CBX7 AlphaScr z-score
CCc1ccccc1Nc1nc2ccccc2nc1NS(=O)(=O)c1ccc(C)cc1	0.91	-2.6
COc1ccc(-n2nc(C(=O)NCC(=O)Nc3cccc(Cl)c3)c3ccccc3c2=O)cc1	1	0.049
CC1CCN(c2c(NCc3ccc(C(=O)NC4CCCC(C)C4C)cc3)c(=O)c2=O)CC1 (configuration not stated)	1	1.4
Cc1nc2ccc(S(=O)(=O)N(C)CC(=O)NCCc3ccc(Cl)cc3)cc2s1	1.3	2
COc1ccc(-c2nc(SCC(=O)Nc3ccc4c(c3)OCO4)c(-c3ccccc3)[nH]2)cc1	0.93	-1.9
O=C(CSc1nnc(Cc2cc(=O)[nH]c(=O)[nH]2)n1-c1ccc(F)cc1)Nc1ccc(F)cc1	1	0.08
COc1cc2c(cc1OC)-c1nnc(-c3ccc(Cl)cc3)n1C(C)(C)C2	1	0.3
CCOc1ccccc1-c1nc(-c2ccc(NC(=O)Cc3ccccc3OC)cc2)no1	1	0.36
Cc1cccc(N2CCN(C(=O)c3cc(-c4ccncc4)nc4ccccc34)CC2C)c1 (configuration not stated)	0.41*	-6.7*
CCOc1ccc(N2CC(C(=O)Nc3ccccc3OCC)CC2=O)cc1 (configuration not stated)	1	0.031
CC(=O)Nc1ccccc1/C=C/c1ccc2c(C)cc(C)c(O)c2n1	0.94	-1.2
CCOc1ccc(NC(=O)c2c(NC(=O)c3ccncc3)sc3c2CCCCC3)cc1	1	0.23
CCN(C(=O)c1ccc2c(=O)n3c(nc2c1)CCCCC3)c1cccc(Cl)c1	1	0.013
Cc1cccc(OCc2nc(-c3ccccc3Cl)no2)c1	1.4	1.9
O=C(CSc1nnc(-c2ccc3c(c2)OCCO3)o1)N1CCCc2ccccc21	1	0.37
O=C(NCc1cccnc1)c1ccc2c(c1)ncn2C1CCCC1	1.1	1.1
O=C(Cn1ncc2c1-c1ccccc1OC2)Nc1ccc(F)cc1Cl	0.96	-0.57
CC1CCC(NC(=O)C2(C)CCC(=O)N2Cc2ccc3c(c2)OCO3)CC1 (configuration not stated)	1	0.56
COc1cccc(N2CCN(C(=O)CN(c3ccc(C)cc3)S(=O)(=O)c3cccnc3)CC2)c1	0.82	-2.8
O=C(CC1C(=O)N(c2ccccc2)C(=O)N1CCC1=CCCCC1)Nc1ccccc1 (configuration not stated)	1	1.4
COc1ccccc1Nc1cc(C(=O)NC(C)c2ccc3c(c2)OCCO3)c2ccccc2n1 (configuration not stated)	1.2	5.3
COC(=O)C1=C(C)NC(=O)NC1c1ccc(Cl)cc1 (configuration not stated)	0.89	-1.2
CCCCCOc1ccc(C(=O)N(Cc2ccccc2)C2CCS(=O)(=O)C2)cc1 (configuration not stated)	0.87	-0.13
COc1ccc(N2CCN(CCCNC(=O)CN3CCN(Cc4ccccc4C)C3=O)CC2)cc1	0.74	-4.1
COc1cc(Cl)c(C)cc1NC(=O)Cn1cnc2sc(C)c(C)c2c1=O	1	0.17
COc1ccccc1-c1nnc(SCC(=O)N2CC(C)CC(C)C2)o1 (configuration not stated)	1.4	0.81
O=C(Cn1cc(S(=O)(=O)c2ccccc2)c(=O)c2cc3c(cc21)OCO3)Nc1ccc(Cl)cc1	0.86	-2
COc1ccc(CNC(=O)CCc2nc(-c3ccccc3F)no2)cc1	0.96	-1.2
O=C1CN(C(=O)CC2CCCCC2)C(c2ccccc2)c2cc(Cl)ccc2N1 (configuration not stated)	0.9	-2.5
CC(C(=O)O)C1Sc2ccccc2N(Cc2ccc(F)cc2)C1=O (configuration not stated)	1	0.66

Pulled one by one from above, 3 records:
mol	CBX7 AlphaScr	CBX7 AlphaScr z-score
COc1ccccc1Nc1cc(C(=O)NC(C)c2ccc3c(c2)OCCO3)c2ccccc2n1 (configuration not stated)	1.2	5.3
O=C1CN(C(=O)CC2CCCCC2)C(c2ccccc2)c2cc(Cl)ccc2N1 (configuration not stated)	0.9	-2.5
COC(=O)C1=C(C)NC(=O)NC1c1ccc(Cl)cc1 (configuration not stated)	0.89	-1.2

More records:
mol	CBX7 AlphaScr	CBX7 AlphaScr z-score
CCCCNC(=O)C1CC(=O)N(c2ccc(F)c(Cl)c2)C1 (configuration not stated)	1	0.34
COc1ccc(Cc2nc(-c3cccc(C)c3)no2)cc1	1.7	7.1
COc1ccc(OC)c2[nH]c(=O)c(CCNS(=O)(=O)c3c(C)cc(C)cc3C)cc12	0.93	-1.5
COc1ccc(Nc2nnc(-c3ccc(C)c(S(=O)(=O)N4CCN(C)CC4)c3)c3ccccc23)cc1	0.72	-0.31
CC(C)NC(=O)CN1C(=O)COc2ccc(S(=O)(=O)N3CCCCCC3)cc21	1	0.21
CC(c1ccccc1)C1CC(=O)N(c2ccc(F)cc2)C1=O (configuration not stated)	1.1	0.6
Cc1cc(C)c(NC(=O)Cn2nnc(-c3ccccc3)n2)c(C)c1	1.2	2
CCOC(=O)c1c(NC(=O)c2c(OC)cccc2OC)sc2c1CCCCCC2	1.1	2.5
Cc1ccc(S(=O)(=O)N2CCN(Cc3csc(C)n3)CC2)cc1	0.96	-0.79
O=S(=O)(c1ccc(Cl)cc1)c1nc(-c2ccc(Cl)cc2Cl)oc1N1CCOCC1	0.82	-4.2
CC1CCCCN1C(=O)c1cc(-c2ccc(Br)cc2)on1 (configuration not stated)	1.1	0.78
